Assay outcomes from PubChem BioAssay.
Sfp PPTase inh: Sfp phosphopantetheinyl transferase inhibition | Q9F4F7 | Biochemical Sfp PPTase activity, qHTS | Potency, µM, for inactives: max response, negative = inhibition, actives largely listed as inhibitors | 310,000 tested, 3.5% active | AID 1490; active = well fitted inhibition curve with a large enough effect; inconclusive = small, poorly fitted or top-dose-only effect, or another doubt; inactive = no such curve, though single readings can be large or run the other way;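 also: the enzyme is Sfp with the accession as filed and its product quenches rhodamine fluorescence; potency is read from the fitted curve at half-maximal effect; 0% = enzyme reaction without inhibitor and -100% = no enzyme wells; top concentration of the series not given in the record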
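Fluorescence-quenching assay: 15 nM Sfp-PPTase preincubated 15 min at room temperature with compound, then 5 uM rhodamine-CoA and 12.5 uM BHQ-2-labelled YbbR peptide added. Fluorescence (ex 525/em 598 nm) read at start and after 30 min; difference gives rate.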
TRPML1 agonist: activates the human TRPML1 channel; Q9GZU1; TRPML1-expressing cells, Ca2+ dye fluorescence, FDSS; host cell line not named in the record; reference of the full effect not given here; activation, % (concentration not given with the values); 410,000 tested, 0.12% active; AID 624414; in the data active = activation above about 50%; inconclusive = about 30% to 50%; inactive = below about 30%; also: 0% is about no effect; the text of the record puts the active cut at 80%
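Tet-induced TRPML1-DL cells, 1,500 per well, cultured overnight, were loaded with a no-wash Ca2+ dye for 45–90 min. Calcium fluorescence was recorded on the FDSS for 110 s after compound addition, before the EC80 agonist (4 uM 54-4) was added.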
TRPML1 inh: human mucolipin-1 channel inhibition; 390,000 tested, 0.02% active; Q9GZU1; activity change, negative = inhibition, % (test concentration not listed); TRPML1-inducible cells, Ca2+ dye fluorescence, FDSS; hits give low values; inhibition of EC80 agonist-evoked calcium signal; in the data active means activity change below about -50%; inconclusive means about -30% to -50%; inactive means above about -30%;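 also: stimulus is agonist 54-4 at its EC80 concentration; % is scaled to controls: 0 for no effect and ±100 for the full control effect; compound concentration not given in the record; the text of the record puts the active cut at -80%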
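Calcium fluorescence in TRPML1-DL cells induced overnight with Tet: a 110 s read after compound pin addition, then a 110 s antagonist read after challenge with 54-4 at 4 uM final (EC80).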
Menin MLL FP FL: displaces fluorescein MLL peptide from human menin. Fluorescence polarization, fluorescein-MLL peptide displacement from menin. FP activity change, % at 61.4 µM. 290,000 tested, under 10 active. AID 1766; inconclusive = falling polarisation curve, or a change in total fluorescence; inactive = total fluorescence flat and polarisation flat or rising; no compound was filed as active; the % refers to the polarisation; negative = inhibition;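 also: % of control where 0% means no effect; inhibitors lower the polarisation; unlabelled MLL peptide was the positive control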
ClpP mod: qHTS Assay for Activators of ClpP | 340,000 tested, 1.9% active | Potency, µM (top dose mostly 57.5 µM), for inactives: top-dose activity change, negative = active | ATP-dependent Clp protease proteolytic subunit (Bacillus subtilis (strain 168)), P80244 | AID 651965, 2013 | purified B. subtilis ClpP, FRET peptide cleavage, 20 min; active = well fitted falling curve with a large enough effect; inconclusive = small, poorly fitted or top-dose-only effect; inactive = no such curve, though single readings can be large or run the other way; also: potency is read from the fitted curve at half-maximal effect; the source files actives as falling curves though it sought activators and does not explain the sign; nearly all actives have a fitted effect of over 65% in size; many hits overshoot -100%
Target sequence (P80244 whole entry, looked up): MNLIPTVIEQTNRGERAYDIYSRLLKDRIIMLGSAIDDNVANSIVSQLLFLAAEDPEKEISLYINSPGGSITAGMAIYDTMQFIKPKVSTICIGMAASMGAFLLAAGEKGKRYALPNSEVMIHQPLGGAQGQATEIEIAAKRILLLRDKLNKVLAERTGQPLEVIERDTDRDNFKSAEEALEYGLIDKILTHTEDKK
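Purified B. subtilis ClpP, 10 microg/mL final in Tris/HCl pH8 with KCl, BSA, glycerol and Tween-20, cleaved an Abz/nitrotyrosine-quenched decapeptide. Fluorescence (ex 320, em 430) was read at 0 and 20 min at room temperature. Delta was normalized to 5.8 microM ADEP and DMSO/no-enzyme controls.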
TRPV1 potentiator: enhances activation of the human vanilloid receptor TRPV1; 320,000 tested, 0.02% active; TRPV1-expressing cells, Fluo-8 calcium influx, capsaicin EC20 potentiation; host cell line not named in the record; control for the full effect not named in the record; Q8NER1; potentiation, % at 8.33 µM; active means potentiation above 80%; inconclusive means 30% to 80%; inactive means below 30%; also: 0% is about no effect
Target sequence (Q8NER1 whole entry, looked up): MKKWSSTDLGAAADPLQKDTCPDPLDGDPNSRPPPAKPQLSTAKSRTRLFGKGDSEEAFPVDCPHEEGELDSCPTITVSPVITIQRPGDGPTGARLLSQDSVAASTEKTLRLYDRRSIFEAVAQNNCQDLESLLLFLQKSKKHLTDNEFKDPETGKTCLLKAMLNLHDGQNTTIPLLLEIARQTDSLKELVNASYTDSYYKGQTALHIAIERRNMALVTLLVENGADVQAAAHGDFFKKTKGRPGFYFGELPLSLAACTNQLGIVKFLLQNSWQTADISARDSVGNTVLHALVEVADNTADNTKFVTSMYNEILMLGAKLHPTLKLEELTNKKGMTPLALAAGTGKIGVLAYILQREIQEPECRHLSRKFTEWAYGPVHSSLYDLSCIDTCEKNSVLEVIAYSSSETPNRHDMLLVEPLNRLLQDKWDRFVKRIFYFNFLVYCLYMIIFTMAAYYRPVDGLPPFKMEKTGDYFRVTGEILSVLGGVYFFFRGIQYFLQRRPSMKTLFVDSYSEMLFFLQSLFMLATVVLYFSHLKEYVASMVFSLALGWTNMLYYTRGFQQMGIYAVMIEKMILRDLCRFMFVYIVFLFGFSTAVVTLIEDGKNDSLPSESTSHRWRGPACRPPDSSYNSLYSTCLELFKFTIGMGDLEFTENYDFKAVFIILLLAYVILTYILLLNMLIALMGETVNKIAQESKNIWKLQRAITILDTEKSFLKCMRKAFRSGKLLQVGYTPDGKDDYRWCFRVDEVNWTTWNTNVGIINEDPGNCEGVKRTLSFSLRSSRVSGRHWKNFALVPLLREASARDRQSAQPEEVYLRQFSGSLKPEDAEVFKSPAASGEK
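Fluo-8 calcium influx in TRPV1-expressing cells, kinetic read (ex 480/em 520 nm). Compound added and read 3 min for agonist activity, followed by capsaicin at EC20 final and 2 min further read for enhancement.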
PINK1 modulator: PINK1 expression modulation; PINK1 immunofluorescence, high-content cytometry, 24 h; Potency, µM (doses to about 76.6 µM), without a hit: at the top dose activation (PINK1 increase), most hits filed as activators; 410,000 tested, 0.2% active; active = well fitted activation curve with a large enough effect; inconclusive = small, poorly fitted or top-dose-only effect; inactive = flat fitted curve, though single readings scatter; cell line not stated here;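 also: potency is read from the fitted curve at half-maximal effect; % of control where 0% means no effect; nearly all actives have a fitted effect of over 65% in size; a mitochondrial uncoupler was the plate control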
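Stable cell line, 250 cells/well, 12 h attachment; compounds pinned at 5 concentrations, 24 h; CCCP control. Fixed with nuclear dye, primary antibodies 12 h at 10 degrees C, secondary plus cell stain; laser-scanning cytometer read.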
* = called active by the depositor; ? = inconclusive; nt = no result given; & = joins results of further samples; [ ] = another dose, or the depositor's remark.

canonical_smiles	Sfp PPTase inh	TRPML1 agonist	TRPML1 inh	Menin MLL FP FL	ClpP mod	TRPV1 potentiator	PINK1 modulator
CC(=O)N1CCC2(CCCN(C(=O)Nc3cccc(C#N)c3)C2)CC1	11%	nt	nt	1.4	nt	nt	0.0%
Cc1ccc2nc(C)c(C(=O)N/N=C/c3cccs3)n2c1	9%	0.1	1	9.4	-4.8%	2	5.1%
Cc1ccc(S(=O)(=O)c2cn(Cc3cccc(C)c3)c3cc4c(cc3c2=O)OCO4)cc1	nt	0.5	-5	nt	-20%	nt	1.0%
CCOC(=O)c1c(C)n(-c2ccc(OC)cc2)c2ccc(OC(=O)COc3ccccc3)cc12	nt	0.6	14	nt	?	nt	3.4%
CC(=O)c1cc(-c2ccc(F)cc2)n(CC(=O)NC(C)c2ccccc2)c1C (centres undefined)	nt	1.1	-4	nt	-0.9%	nt	2.3%
COc1ccc(C(=O)N2CCN(c3ccc([N+](=O)[O-])c(-n4nc(C)cc4C)c3)CC2)cc1	-2%	0.8	4	1.1	-3.7%	1	0.3%
Cc1ccccc1C(=O)NCC(=O)Nc1ccc(C)c(S(=O)(=O)N2CCCCCC2)c1	13%	0.7	-10	nt	7.4%	15	3.2%
CC(=O)c1cc(C#N)c(SCc2ccncc2)nc1C	?	1.2	-9	3.5	1.8%	-9	-1.0%
CCN1CCN(c2ccc(NC(=O)c3cccc(S(=O)(=O)N4CCCC4)c3)cc2)CC1	nt	-0.6	-20	nt	-0.9%	nt	-4.8%
Cc1ccc(S(=O)(=O)Nc2ccc(C(=O)Nc3ccncc3)cc2)cc1	10%	0.6	-2	1.9	-12%	?	3.4%
O=C(CNS(=O)(=O)c1cccc(C(F)(F)F)c1)NC1CCCCCC1	nt	-0.3	1	nt	nt	nt	2.1%
Cc1nc(S(=O)(=O)N2CCN(c3cccc(Cl)c3)CC2)cn1C	nt	0.2	9	nt	-0.7%	nt	3.1%
COP(=O)(OC)C(Nc1ccc(C)cc1)c1ccc(Br)cc1 (centres undefined)	nt	0.6	0	nt	nt	nt	-1.0%
O=C1c2ccc([N+](=O)[O-])cc2C(=O)N1Cc1cccnc1	11%	-0.2	5	9.1	nt	21	-0.4%
CC(=O)Nc1ccc(NC(=O)C(C)OC(=O)C2(c3ccc(F)cc3)CCCC2)cc1 (centres undefined)	17%	0.1	-21	1.7	1.4%	-11	1.4%
CCCn1c(SCC(=O)N2c3ccccc3CCc3ccccc32)nc2c1c(=O)n(C)c(=O)n2C	12%	-0.3	13	3.5	-1.3%	2	10%
O=C(/C=C/Nc1ccc(F)c(Cl)c1)c1ccco1	3%	1.8	18	-1.4	-5.8%	-2	-1.5%
C=CCOc1ccc(Br)cc1CNCCCN1CCOCC1	6%	0.9	-9	-1.3	2.1%	3	-0.6%
O=S(=O)(c1ccc2ccccc2c1)N1CCN(CCO)CC1	5%	0.5	-2	-6.6	nt	15	-1.5%
COc1ccccc1-c1cc(C(=O)Nc2c(F)cc(F)cc2Br)no1	6%	4.6	7	-0.6	?	11	2.5%[38.3 µM]
CCOc1nc(OCC)c2[nH]c(C(=O)O)c(Br)c2n1	nt	0.4	17	nt	0.7%	nt	6.8%
COc1ccc(OCCCC(=O)Nc2nccs2)cc1	-3%	-0.6	-5	2.9	0.1%	7	1.4%
O=C(COc1ccc2c(-c3ccccc3)cc(=O)oc2c1)NCCCn1ccnc1	3%	nt	nt	-1.9	-1.6%	6	1.0%
Cc1ccccc1Cn1c(CN2CCC(C(=O)NCCN(C)C)CC2)cc2ccccc21	nt	4.0	24	nt	-1.6%	nt	11%
Cn1c(=O)c2c(nc(SCc3cc4c(cc3Cl)OCO4)n2C)n(C)c1=O	5%	nt	nt	1.5	nt	2	nt
Cc1ccc2c(c1)C(c1ccccc1)N(C(=O)c1ccccc1F)CC(=O)N2 (centres undefined)	nt	1.0	-6	nt	-2.4%	nt	0.5%
c1ccc(Cn2c[n+](Cc3ccccc3)cn2)cc1	12%	0.4	0	0.9	3.3%	8	-1.4%
Cc1ccc(C)c2[nH]c(=O)c(CN(CC3CCCO3)C(=S)NCc3ccco3)cc12 (centres undefined)	-24%	-1.0	10	-0.1	nt	2	-0.9%
CCOC(=O)c1c(C)[nH]c(C(=O)N2CCCC(C(=O)c3cccc(OC)c3)C2)c1C (centres undefined)	-2%	1.7	-10	11	-0.8%	2	3.8%
CC(=O)NCCC(=O)Nc1nc(-c2cccs2)c(-c2cccs2)s1	3%	-0.5	-1	-0.7	1.3%	-5	1.6%

Given with each value named: 2 of the compounds above
COc1ccccc1-c1cc(C(=O)Nc2c(F)cc(F)cc2Br)no1
  Sfp PPTase inh: 6%
  TRPML1 agonist: 4.6
  TRPML1 inh: 7
  Menin MLL FP FL: -0.6
  ClpP mod: ?
  TRPV1 potentiator: 11
  PINK1 modulator: 2.5%[38.3 µM]

CCOc1nc(OCC)c2[nH]c(C(=O)O)c(Br)c2n1
  Sfp PPTase inh: nt
  TRPML1 agonist: 0.4
  TRPML1 inh: 17
  Menin MLL FP FL: nt
  ClpP mod: 0.7%
  TRPV1 potentiator: nt
  PINK1 modulator: 6.8%

Full records from above. Values in the order: Sfp PPTase inh | TRPML1 agonist | TRPML1 inh | Menin MLL FP FL | ClpP mod | TRPV1 potentiator | PINK1 modulator
Cc1ccc(S(=O)(=O)c2cn(Cc3cccc(C)c3)c3cc4c(cc3c2=O)OCO4)cc1 is entered as nt | 0.5 | -5 | nt | -20% | nt | 1.0%
CCCn1c(SCC(=O)N2c3ccccc3CCc3ccccc32)nc2c1c(=O)n(C)c(=O)n2C is entered as 12% | -0.3 | 13 | 3.5 | -1.3% | 2 | 10%
COc1ccc(OCCCC(=O)Nc2nccs2)cc1 is entered as -3% | -0.6 | -5 | 2.9 | 0.1% | 7 | 1.4%
CCOc1nc(OCC)c2[nH]c(C(=O)O)c(Br)c2n1 is entered as nt | 0.4 | 17 | nt | 0.7% | nt | 6.8%

Remaining list, next part:
The line under a structure holds: Sfp PPTase inh, TRPML1 agonist, TRPML1 inh, Menin MLL FP FL, ClpP mod, TRPV1 potentiator, PINK1 modulator
COc1ccc2c(c1)C=CC1(O2)N(CCO)c2ccccc2C1(C)C (centres undefined)
    ?, 11, -1, ?, -0.5%, -4, 28%
O=C(COC(=O)C1CC2CCCC(C1)C2=O)NNC(=O)c1ccccc1F (centres undefined)
    nt, -0.7, 9, nt, -9.3%, -8, 0.5%
Cc1c(-c2nnc(SCC(=O)O)n2-c2ccccc2Br)nnn1-c1ccccc1
    15%, 0.4, 16, 4.5, -1.3%, 15, 1.5%
COC(=O)c1ccc(NC(=O)C[n+]2ccccc2C)cc1
    0%, 0.3, -6, -0.7, -1.9%, -2, -0.4%
CCCc1nnc(NC(=O)CCC(=O)N2CCN(Cc3cc(Cl)ccc3OC)CC2)s1
    16%, -0.4, -1, nt, -2.0%, -12, 0.6%
COc1ccc(C(N)=O)cc1N
    17%, 0.0, 3, -1.2, -4.7%, -5, 1.5%
COc1ccccc1Nc1nc(N)nc(CN2CCC(C)CC2)n1
    11%, -1.1, 19, 1.0, -2.5%, -7, 2.4%
COc1cc([N+](=O)[O-])cc2sc(NC(=O)C3CC3)nc12
    4%, 0.5, -16, 1.8, 0.4%, 22, 1.6%
Cc1ccc(C(=O)NCCNC(=O)c2ccccc2)cc1
    11%, 0.4, 11, -2.3, 0.8%, -41, 1.0%
O=C(CSc1nnc(CNC(=O)C23CC4CC(CC(C4)C2)C3)n1-c1ccccc1)Nc1ccccc1
    16%, 1.5, 21, -0.6, -1.5%, 4, 3.2%
O=C1NC(=O)C(=C2CCOC2=O)N1
    nt, 0.6, 6, nt, -3.6%, nt, 1.3%
COc1ccc(C(=O)c2cn(Cc3ccccc3F)c3cc4c(cc3c2=O)OCCO4)cc1OC
    nt, 1.9, -1, nt, -1.0%, nt, 0.5%
Cc1ccc(C2C3=C(CC(C)(C)CC3=O)OC3=C2C(=O)CC(C)(C)C3)cc1
    7%, 1.1, -2, -3.8, nt, 1, -1.3%
Nc1c(C(=O)CCC(=O)O)oc2ccc(Cl)cc12
    -13%, 0.4, -5, 6.2, 4.4%, 9, 2.2%
CC12CCC(=O)N1C(C(=O)NNC(=O)c1ccc(Cl)cc1)CS2 (centres undefined)
    nt, 1.5, -5, nt, -2.6%, -24, -0.2%
COC(=O)c1cccc(NC(=O)Cn2cnc3c2c(=O)n(C)c(=O)n3C)c1
    15%, 0.7, 13, 2.0, -0.8%, -4, nt
CCOc1cc(NC(=S)NCCCOC)c(OCC)cc1NC(=O)c1ccco1
    -10%, 1.5, -7, 4.1, 0.9%, -17, 0.6%
CCOc1ccc(NC(=O)COC(=O)C2(C)CC2(Cl)Cl)c([N+](=O)[O-])c1 (centres undefined)
    -15%, 3.2, 31, -4.5, nt, -10, 0.0%
C/C(=N\NC(=S)NCc1ccccc1)c1ccc2ccccc2c1
    -14%, -0.4, -9, 2.6, -3.7%, 20, 1.8%
CC1=C(C(=O)OCc2ccccc2)C(c2ccccc2-c2ccccc2)NC(=O)N1CCCCCC(=O)O (centres undefined)
    -1%&0%, -0.2, 21, 12&3.1, -0.3%, -9, 2.1%
